Screens deposited in PubChem BioAssay by PCMD.
Biofilm kill mix: mixtures killing C. albicans biofilm. inhibition, % at 7.6 µM. C. albicans biofilm persisters + clotrimazole, fluorescence viability; primary screen in compound mixtures of four per well. actives 0.02% (n = 120,000);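 active = inhibition above 30.3% in the primary screen of four-compound pools, then above 30% when the compound was retested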;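 note: compounds exposed to preformed 24 h biofilms for 48 h; the number belongs to the whole pool; some results filed as inactive read as strong as hits; inactives centre near 12; 0% = biofilm with clotrimazole alone and 100% = kill control; retested singly at about 60 µM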
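Test system: C. albicans biofilms. Buffer or medium: RPMI/MOPS medium, pH 7.0. Timing: 48 h compound exposure at 37 °C. Technique: Alamar Blue fluorescence. Evaluation: percent inhibition of biofilm viability.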
* = called active by the depositor.

SMILES	Biofilm kill mix
CCn1cc(C(=O)O)c(=O)c2cnc(N3CCN(C(=S)NC(=O)c4ccccc4Cl)CC3)nc21	17
O=C(O)/C=C/c1ccc2noc(-c3ccccc3)c2c1	16
CC(C)CCn1cnc2c(sc3nc4c(cc32)CSC(C)(C)C4)c1=O	-4
COc1cccc(Cn2c(=O)c3[nH]cnc3n(-c3ccccc3C)c2=O)c1	13
C=CCN1C(=O)/C(=C\c2cc(Br)c(OCc3ccccn3)c(OC)c2)SC1=S	19
COc1ccc(/C=N/NC(=O)CSCc2ccc([N+](=O)[O-])cc2)cc1OC	22
Cc1ccc(/C=C2/SC(=O)NC2=S)o1	5
CN(C)S(=O)(=O)c1ccc2nnn(OCC(=O)NC34CC5CC(CC(C5)C3)C4)c2c1	27
CCN/N=C(\Cc1nc2ccccc2[nH]1)c1ccccc1	4
C=C(C)C1CC=C(C)/C(=N/NC(=O)c2cccs2)C1 (stereo not drawn)	15

Exported as a markdown table: entries from further up
| SMILES | Biofilm kill mix |
| --- | --- |
| C=CCN1C(=O)/C(=C\c2cc(Br)c(OCc3ccccn3)c(OC)c2)SC1=S | 19 |
| COc1ccc(/C=N/NC(=O)CSCc2ccc([N+](=O)[O-])cc2)cc1OC | 22 |
| Cc1ccc(/C=C2/SC(=O)NC2=S)o1 | 5 |

Additional results follow.
SMILES	Biofilm kill mix
Cc1sc2nc(SCc3nc(-c4ccccc4)no3)n(-c3ccccc3)c(=O)c2c1C	9
CN(C(=O)Nc1ccccc1)n1cnc2ccccc2c1=O	21
Cn1c(=O)c2[nH]c(SCC(=O)c3ccc(F)cc3)nc2n(C)c1=O	4
COc1ccc2c(OC)c3ccoc3nc2c1OC	26
S=C(NCCc1ccccn1)Nc1cccc(Cl)c1	9
O=C(CCCOc1ccc(Cl)cc1Cl)Nc1ccc(O)cc1C(=O)O	23
O=C(NN1C(=O)C2C3C=CC(O3)C2C1=O)c1ccccc1 (stereo not drawn)	20
COc1cccc(NC(=S)N(Cc2cccc(Br)c2)CC2CCC(C(=O)O)CC2)c1 (stereo not drawn)	6
NC(=O)CC(NC(=O)c1ccc(Br)cc1)c1ccc(N2CCN(c3ccc(F)cc3)CC2)c([N+](=O)[O-])c1 (stereo not drawn)	14
COc1cccc2c(Cl)c(CCCl)c(C)nc12	11

A portion from further up, for reference:
SMILES	Biofilm kill mix
CN(C(=O)Nc1ccccc1)n1cnc2ccccc2c1=O	21
Cn1c(=O)c2[nH]c(SCC(=O)c3ccc(F)cc3)nc2n(C)c1=O	4
COc1ccc2c(OC)c3ccoc3nc2c1OC	26
S=C(NCCc1ccccn1)Nc1cccc(Cl)c1	9
O=C(CCCOc1ccc(Cl)cc1Cl)Nc1ccc(O)cc1C(=O)O	23
O=C(NN1C(=O)C2C3C=CC(O3)C2C1=O)c1ccccc1 (stereo not drawn)	20
COc1cccc(NC(=S)N(Cc2cccc(Br)c2)CC2CCC(C(=O)O)CC2)c1 (stereo not drawn)	6

Going on with the list:
SMILES	Biofilm kill mix
c1ccc(NC2=Nc3cccc4cccc2c34)cc1	11
CCC(=O)c1ccc(OCc2ccc(C(=O)c3ccccc3)cc2)cc1	36
C/C(CCN1CCc2nc(-c3ccccc3)c(-c3ccccc3)cc2C1)=N\O[C@@H](C)c1cc(-c2c(C)cc(C)cc2C)no1	17
Cc1nc(C2CCC3C4CCC5=CC(=O)CC[C@]5(C)C4CC[C@]23C)cs1 (stereo partly drawn)	18
O=C(NCC1CCCO1)C1CCN(C2CCN(C3CCCCCC3)CC2)CC1 (stereo not drawn)	-7
O=C(O)CNC(=O)CC1S/C(=N/N=C2\CSC(=O)N2)NC1=O (stereo not drawn)	7
COc1ccc(N(CC(=O)NCc2ccncc2)S(=O)(=O)c2ccccc2[N+](=O)[O-])c(OC)c1	-3
COc1ccc(/C=C2/SC(=S)N(CCCC(=O)Nc3ccc(O)cc3)C2=O)cc1	27
Cc1cc(C)c2ccc(=S)[nH]c2n1	12
O=C(NCc1cccnc1)C1CCC(c2ccc(Cl)cc2)CC1 (stereo not drawn)	18
Cc1cccc(-c2nc3ccccc3c(=O)n2NC(=O)/C=C/c2ccc([N+](=O)[O-])cc2)c1	19
O=C(N/N=C/c1cc([N+](=O)[O-])ccc1O)c1c[nH]c2ccccc12	11
Cc1cc(NC(=O)C(C)C)ncc1NC(=O)c1ccccn1	5
CN1C(=O)C2(NC(=O)c3ccccc3N2C)c2ccccc21 (stereo not drawn)	4
Cc1ccc(NC(=O)OCCNC(=O)OC(C)C)cc1	26
C/C(=N\NC(=O)c1ccn(C)n1)c1ccc(NC(=O)C2CCCC2)cc1	8
COc1ccc(CNc2nc(-c3cccnc3)nn2C(=O)C(C)C)cc1	9
O=S1(=O)CCC(NC(=S)N2CCCCC2)C1 (stereo not drawn)	-7
Cc1ccccc1C(=O)NNC(=O)C12CC3CC(CC(C3)C1)C2	13
COCc1cc(C)nc(SCC[N+](C)(C)CC(=O)c2ccc(Br)cc2)c1C#N	27
Cc1c(Cl)cccc1NC(=S)NCCC(c1ccccc1)c1ccccc1	7
O=C(c1ccc([N+](=O)[O-])cc1)N1CCC(Cc2ccccc2)CC1	14
Cc1cccc2nc(CSc3nnc(N)s3)cn12	18
COc1ccc(-n2nnnc2SCC(=O)N2CCN(C(=O)c3ccco3)CC2)cc1OC	-1
Cc1ccc(S(=O)(=O)c2c(C)cc(C)nc2N2CCOCC2)cc1	13
COC(=O)c1sccc1NC(=O)CC1NCCNC1=O (stereo not drawn)	11
O=C(c1cnn2c(C(F)(F)F)cc(-c3cccs3)nc12)N1CCN(Cc2ccccc2)CC1	6
O=c1c(C(c2ccc(Br)cc2)c2c(O)nc3n(c2=O)CCS3)c(O)nc2n1CCS2	23
CCCCCc1ccc(OCCCC[n+]2ccccc2)c(CCCCC)c1	9
C=CCOc1c(Cl)cc(CNc2nccs2)cc1OC	13

Copied from the list:
`C=CCOc1c(Cl)cc(CNc2nccs2)cc1OC` in Biofilm kill mix reads 13
`O=c1c(C(c2ccc(Br)cc2)c2c(O)nc3n(c2=O)CCS3)c(O)nc2n1CCS2` in Biofilm kill mix reads 23
`Cc1ccc(S(=O)(=O)c2c(C)cc(C)nc2N2CCOCC2)cc1` in Biofilm kill mix reads 13
`Cc1cccc2nc(CSc3nnc(N)s3)cn12` in Biofilm kill mix reads 18

The results go on:
SMILES	Biofilm kill mix
Cc1cc(=O)[nH]c(SCC(=O)NC(C)C2CC3CCC2C3)c1C#N (stereo not drawn)	13
Cc1ccc(S(=O)(=O)N2CCCCC2)cc1C(=O)N1CCN(c2ccccn2)CC1	8
Cc1cc(C)c2c(n1)sc1c(N3CCN(C)CC3)ncnc12	19
CC(/C=C1\SC(=S)N(CCCC(=O)Nc2ccc(C(=O)O)cc2)C1=O)=C\c1ccccc1	13
OCCC1CN(Cc2cccn2-c2cccnc2)CCN1C1CCCC1 (stereo not drawn)	19
COc1ccccc1C(=O)NNC(=O)c1nn(Cc2ccccc2)c(=O)c2ccccc12	9
O=C1CNC(=S)N1c1nc(-c2ccccc2)cs1	8
O=C(COC(=O)CCSc1ccc(Cl)cc1)NCc1ccc(Cl)cc1	14
O=C(O)C1CC1C(=O)Nc1cc(F)ccc1F (stereo not drawn)	10
Cc1ccc(N2C(=O)CS(=O)C(c3ccccc3)C2=O)cc1C (stereo not drawn)	15

Ordered by number of heavy atoms (smallest number first): three of the compounds above.
SMILES	Biofilm kill mix
O=C(O)C1CC1C(=O)Nc1cc(F)ccc1F (stereo not drawn)	10
Cc1ccc(N2C(=O)CS(=O)C(c3ccccc3)C2=O)cc1C (stereo not drawn)	15
COc1ccccc1C(=O)NNC(=O)c1nn(Cc2ccccc2)c(=O)c2ccccc12	9

Later entries:
SMILES	Biofilm kill mix
OCC(Cc1ccccc1)Nc1c2ccccc2nc2ccccc12 (stereo not drawn)	-2
CN(C)S(=O)(=O)c1cccc(N2C(=O)CC3(CCCCC3)CC2=O)c1	10
COc1ccc(C(=O)NC(=S)Nc2cccc3nc(C)ccc23)cc1OC	11
CN(c1ccccc1)S(=O)(=O)c1cc(C(=O)OCC(=O)N2CCN(C(=O)c3ccco3)CC2)ccc1Cl	13
COc1cc(CC(=O)O)ccc1O	32
O=C(CSc1nnc(SCc2cccc3ccccc23)s1)N=Nc1c(O)[nH]c2ccccc12	14
Nc1[nH]c(N=NC(=O)c2ccccc2O)c2ccccc12	0
Cc1ccc(OCCNC(=O)c2cccc(Oc3ccc(C(F)(F)F)cc3[N+](=O)[O-])c2)cc1	9
CC(=O)NC(Cc1ccccc1C)C(=O)NC1CCN(c2ncccc2[N+](=O)[O-])CC1 (stereo not drawn)	11
O=C1NC(=Nc2ccc(O)cc2)S/C1=C/c1ccco1	7
OCCC1CN(CC(c2ccccc2)c2ccccc2)CCN1C1CCCC1 (stereo not drawn)	15
C[C@H](NC(=O)c1ccco1)C(=O)Nc1cccc([N+](=O)[O-])c1	14
Cc1cc(C)nc(NNC2=CC(=[N+]3CCCC3)CCC2)n1	9
COc1cc(OC)cc(C(=O)Nc2nnc(Cc3ccc(OC)c(OC)c3)s2)c1	-3
CCOc1cc(N2CCOCC2)c(OCC)cc1NC(=O)CSc1n[nH]c(N)n1	15
O=C(CNC(=O)c1cccc(Br)c1)N/N=C/c1ccc[nH]1	8
COC(=O)[C@@]1(Cc2ccc(F)cc2)[C@H]2c3cc(C(=O)N4CCCC4)n(Cc4ccc(C(F)(F)F)nc4)c3C[C@H]2CN1C(=O)c1ccccc1	-2
O=C(/C=C/c1ccco1)NCc1ccc2c(c1)OCO2	5
COc1ccc(-c2nc(SC(CC(=O)NCc3ccccc3)c3ccc(OC)c(OC)c3)n[nH]2)cc1 (stereo not drawn)	0

The list is partial. The share of hits here may be higher or lower than overall.
